UCH37 inh – inhibitors of human deubiquitinating enzyme UCH37; inhibition, % (concentration not given with the values); Q9Y5K5; purified proteasome/UCH37, Ub-AMC cleavage fluorescence; actives 0.33% (n = 330,000);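 active = mean of two replicates above 20%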;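 note: 0% = compound-free wells with enzyme and 100% = wells lacking proteasome; stock transfer was 100 nL into about 20 µL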
Target sequence (Q9Y5K5 whole entry, looked up): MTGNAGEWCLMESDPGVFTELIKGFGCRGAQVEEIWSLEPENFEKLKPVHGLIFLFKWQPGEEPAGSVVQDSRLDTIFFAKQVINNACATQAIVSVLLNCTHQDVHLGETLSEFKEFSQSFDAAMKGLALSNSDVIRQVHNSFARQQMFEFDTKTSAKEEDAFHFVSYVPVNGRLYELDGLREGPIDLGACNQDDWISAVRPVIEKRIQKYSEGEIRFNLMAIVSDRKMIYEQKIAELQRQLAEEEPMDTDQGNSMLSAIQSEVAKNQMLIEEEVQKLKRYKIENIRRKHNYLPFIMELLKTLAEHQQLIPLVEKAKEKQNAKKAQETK
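system = Proteasome-associated human UCH37 deubiquitinase | amount = 0.15 nM proteasome as dispensed | medium = pH 7.4 Tris-HCl (50 mM) with ovalbumin, ATP-MgCl2, DTT | incubation = 30 min preincubation with enzyme, 25 min cleavage at room temperature | detection = AMC fluorescence 355/460 nm | read-out basis = percent inhibition | controls = no-proteasome and no-compound wells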
FGF22 binding – binders of recombinant human FGF22 by thermal shift. Q9HCT0. SYPRO orange fluorescence; percent of sucrose octasulfate shift, DMSO zero. calls only at 9.99 µM. actives 1.5% (n = 340,000);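 active = melting point raised past a set limit in the mean and every replicate; three in four hits are not shown here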
Target sequence (Q9HCT0 whole entry, looked up): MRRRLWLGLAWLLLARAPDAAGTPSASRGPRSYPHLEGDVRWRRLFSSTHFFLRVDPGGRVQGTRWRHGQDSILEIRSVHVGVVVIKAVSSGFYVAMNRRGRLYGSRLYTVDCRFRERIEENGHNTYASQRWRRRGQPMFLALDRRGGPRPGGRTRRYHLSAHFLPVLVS
E coli growth – blocks Escherichia coli growth | OD600, 23 h; active compounds read low | OD600 absorbance (concentration not given with the values) | actives 0.21% (n = 330,000) | AID 1053175;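 active = OD600 absorbance below the run mean of sample wells minus 3.6 SD, in any replicate, cut at about 0.56 in these data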;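 note: stock transfer was 300 nL into about 60 µL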
ALR H2O2 inh – human ALR oxidase inhibition via reduced H2O2; inhibition, % (concentration not given with the values); actives 3.8% (n = 290,000); purified ALR, DTT oxidation, H2O2 HRP-luminol luminescence; P55789;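 active = mean and each replicate at 75% or more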;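 note: stock transfer was 7.5 nL into about 7.5 µL; 0% = neutral wells and 100% = wells with inactivated enzyme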
rRNA inh HTS – inhibitors of bacterial rRNA selective over humanized ribosomes. E. coli WT GFP vs humanized-ribosome RFP mutants, fluorescence, 24 h; active compounds read low; DMSO median 0, no signal -100. GFP signal change (wild-type ribosome), % (no concentration beside the values). actives 1.6% (n = 350,000). AID 720706;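 active = significant combined selectivity score with lowered wild-type GFP, culture density cut under 30%, mutant RFP and density less affected; inactive = any of these conditions unmet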; note: one replicate is shown; some compounds called inactive have numbers as strong as hits
B2AR ag – activates human beta-2 adrenergic receptor causing internalization. response, % (test concentration not listed). AID 504454. actives 0.43% (n = 340,000). Am2.2-beta2AR cells, FAP receptor internalization, flow cytometry; reference of the scale not given here. P07550;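 active = response above a set limit, near 3 SD of response in nonfluorescent compounds, cut at about 42% in these data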;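 note: stock transfer was 100 nL into about 11 µL; a reference agonist was the positive control; negative values mostly stem from fluorescent compounds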
HNF4A DNA FP – change in binding of human HNF4 alpha to DNA; P41235; HNF4a-FITC DNA binding, fluorescence polarization, 1 h; activity change, % at 10 µM; actives 0.3% (n = 360,000); in the data active = activity change above about 30%, passing the limit was not always enough;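 note: controls were the assay level and a saturating level of protein; the project sought stronger binding though the title names inhibitors; some compounds called inactive have numbers as strong as hits; positive values seem to mean higher polarization but the record does not say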
Target sequence (P41235 whole entry, looked up): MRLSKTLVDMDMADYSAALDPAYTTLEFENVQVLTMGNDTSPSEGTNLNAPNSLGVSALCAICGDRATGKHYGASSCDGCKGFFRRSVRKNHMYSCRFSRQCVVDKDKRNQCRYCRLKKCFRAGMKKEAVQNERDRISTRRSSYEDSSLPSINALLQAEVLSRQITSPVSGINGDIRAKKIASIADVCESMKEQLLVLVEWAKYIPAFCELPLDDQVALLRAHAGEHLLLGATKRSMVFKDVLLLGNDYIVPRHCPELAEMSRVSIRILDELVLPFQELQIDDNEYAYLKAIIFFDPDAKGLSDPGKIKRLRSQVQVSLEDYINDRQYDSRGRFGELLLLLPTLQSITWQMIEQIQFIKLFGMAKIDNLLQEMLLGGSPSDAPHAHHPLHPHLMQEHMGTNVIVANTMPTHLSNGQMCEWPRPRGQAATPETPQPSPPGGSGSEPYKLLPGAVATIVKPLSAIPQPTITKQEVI
rRNA inh HTS OD600 – further read-out of rRNA inh HTS, marked with its call; OD600 change, %; measured here: OD600 growth;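 optical density of the mix in the first replicate; 0 = DMSO median and -100 = no signal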
rRNA inh HTS RFP – further read-out of rRNA inh HTS, marked with its call; RFP signal change, %; measured here: RFP humanized mutant strains;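 first replicate; 0 = DMSO median and -100 = no signal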
* hit, by the source's call; i = inactive; / = no result given; & = joins results of further samples. Only part of the results is shown; the hit share may differ from the screen's.

SMILES	UCH37 inh	FGF22 binding	E coli growth	ALR H2O2 inh	rRNA inh HTS	rRNA inh HTS OD600	rRNA inh HTS RFP	B2AR ag	HNF4A DNA FP
O=C(NCc1ccccc1C(F)(F)F)C1CC(O)CN1C(=O)Nc1ccccc1 (configuration not stated)	-0.8	i	0.71	-12	10	6	13	-4	-3.7
COc1ccc(COc2cccc(C=O)c2)cc1	1.7	i	0.78	0	2	9	-3.1	24	-4.0
O=S(=O)(NCCN1CCCC1)c1ccc(Cl)cc1	-0.4	i	0.69	/	11	10	2.5	-1	1.1
Cc1ccc(NC(=S)N(CCN(C)C)C(C)c2cccnc2)c(C)c1 (configuration not stated)	1.3	i	0.71	-5	9	-11	-2.9	-2	0.2
COc1ccccc1-c1nnc(SC(C)C(=O)Nc2ccc(C(N)=O)cc2)o1 (configuration not stated)	1.0	i	0.72	3	14	9	1.3	1	4.1
CCOC(=O)C(=CNc1ncccc1C)C(=O)OCC	5.4	/	0.64	-1	/	/	/	-22	0.7
CCc1nc2ccc(C(=O)NCc3ccccc3OC)cn2c1N(CC)Cc1cccc(Br)c1	/	i	/	/	-1	4	5.1	/	4.9
Cc1cc(C)c2c(c1)OC(=O)CC2c1ccc2c(c1)OCO2 (configuration not stated)	-1.3	i	0.71	/	-37	-51	-9.7	-2	2.5
Cc1cc(=O)n2cccc(O)c2n1	-274	i	0.67	-11	26	20	0.6	6	-3.6
CC(/C=C\c1cccnc1)=C/C(=O)O	3.0&2.6	/	0.72	1	/	/	/	-4&-2	-3.9&-2.6
O=C(Cc1cc(=O)[nH][nH]1)N/N=C/c1c(Cl)cccc1Cl	/	i	/	-26&2	-5	-5	-11	10&-5	4.7&2.1
O=[N+]([O-])c1ccc(CN2CCN(c3ccc4ccccc4n3)CC2)cc1	4.2	i	0.66	4	9	9	-5.7	-4	-2.1
Cc1cc(C)cc(NC(=O)CCc2c(C)nn(-c3ccc(N4CCCCC4)nn3)c2C)c1	2.0	i	0.71	-7	13	24	1.5	-7	0.3
COc1ccc(OC)c(NC(=O)CCN2CCN(C)CC2)c1	3.0	i	0.68	-27	1	4	0.1	-1	2.0
CC(C)(C)c1cc(N2CCOCC2)n2ncc(-c3ccc(Cl)cc3)c2n1	-251	i	0.72	1	20	18	4.5	-3	12
Cc1cc(SCC(=O)N/N=C/c2ccccc2C(=O)O)c(C)cc1Br	/	i	/	-3	2	-1	-0.2	6	-0.6
COc1ccc(N(CC(=O)NC2CCCCC2)C(=O)CCCC(=O)Nc2ccccn2)cc1	1.2	i	0.71	/	0	-1	2.0	1	-2.6
CCN(C(=O)COC(=O)c1ccc2[nH]c3c(c2c1)CCCC3)C1CCS(=O)(=O)C1 (configuration not stated)	2.8	i	0.66	6	-19	-16	-0.4	-5	-4.4
CC(C)n1c(O)c(/C=C2\C=NN=C2c2ccccc2)sc1=S	/	i	/	/	15	24	3.8	3	0.8
CC(C)Oc1ccc(C(=O)NCc2cccs2)cc1	2.0	/	0.7	-7	/	/	/	-5	0.8
CC1=NN2C(=N)/C(=C\c3cc(C)n(-c4cccc(C)c4)c3C)C(=O)N=C2S1	-64	i	0.71	4	-7	0	40	8	-6.5
COc1ccc(Br)cc1/C=C/C(=O)Nc1ccc2ccccc2c1	-4.4	/	0.68	-4	-3	-3	-6.2	4	-4.1
CN(CCCn1cnc2c(OCc3ccccc3)ncnc21)Cc1ccco1	/	i	/	/	8	2	2.5	/	-0.4
CN(CCOCCOc1ccc2ccccc2c1)Cc1ccccc1	1.8	/	0.7	-32	/	/	/	2	1.1
O=C(c1cccc(Br)c1)N1CCN(S(=O)(=O)N2CCCCCC2)CC1	1.0	i	0.64	-6	-9	-37	-6.2	4	-0.3

Ordered by value in HNF4A DNA FP (falling): five of the compounds above
| SMILES | UCH37 inh | FGF22 binding | E coli growth | ALR H2O2 inh | rRNA inh HTS | rRNA inh HTS OD600 | rRNA inh HTS RFP | B2AR ag | HNF4A DNA FP |
| --- | --- | --- | --- | --- | --- | --- | --- | --- | --- |
| Cc1cc(C)c2c(c1)OC(=O)CC2c1ccc2c(c1)OCO2 (configuration not stated) | -1.3 | i | 0.71 | / | -37 | -51 | -9.7 | -2 | 2.5 |
| CC(C)n1c(O)c(/C=C2\C=NN=C2c2ccccc2)sc1=S | / | i | / | / | 15 | 24 | 3.8 | 3 | 0.8 |
| O=[N+]([O-])c1ccc(CN2CCN(c3ccc4ccccc4n3)CC2)cc1 | 4.2 | i | 0.66 | 4 | 9 | 9 | -5.7 | -4 | -2.1 |
| O=C(NCc1ccccc1C(F)(F)F)C1CC(O)CN1C(=O)Nc1ccccc1 (configuration not stated) | -0.8 | i | 0.71 | -12 | 10 | 6 | 13 | -4 | -3.7 |
| COc1ccc(Br)cc1/C=C/C(=O)Nc1ccc2ccccc2c1 | -4.4 | / | 0.68 | -4 | -3 | -3 | -6.2 | 4 | -4.1 |

(more compounds)
SMILES	UCH37 inh	FGF22 binding	E coli growth	ALR H2O2 inh	rRNA inh HTS	rRNA inh HTS OD600	rRNA inh HTS RFP	B2AR ag	HNF4A DNA FP
CC(=O)OCC(OC(C)=O)C(OC(C)=O)C(OC(C)=O)C(=O)Nc1ccccc1 (configuration not stated)	-1.4	i	0.72	-32	13	10	0.3	14	4.9
CC1(C)SC2c3ccccc3C(=O)N2C1C(=O)O (configuration not stated)	/	i	/	/	3	12	0.1	0	-5.2
O=C(NC1(C(F)(F)F)N=C(c2ccccc2)NC1=O)c1ccccc1F (configuration not stated)	1.4	/	0.68	1	/	/	/	1	3.2
O=C(COc1ccc(S(=O)(=O)N2CCOCC2)cc1Cl)NC1CC1	3.5	i	0.63	-5	-3	0	-1.9	1	-0.5
COc1cccc(-c2noc(C3CCCN(S(=O)(=O)c4cccc(Cl)c4C)C3)n2)c1 (configuration not stated)	4.5	/	0.73	-5	/	/	/	8	5.8
COc1ccc(NCC(=O)N/N=C(\C)c2cc3ccccc3o2)cc1	/	i	/	9	-5	-6	-2.8	4	1.0
CC(C)CNC(=O)COC(=O)c1ccc(F)cc1Cl	-0.3	i	0.67	6	7	-5	-1.7	6	-0.3
c1ccc(-c2nc(NC3CCCC3)c3ccccc3n2)cc1	-1.1	i	0.68	/	1	-6	-1.6	-1	1.3
CCOC(=O)c1c(NC(=O)CNCCO)sc(C)c1C	0.9	/	0.74	6	/	/	/	8	-2.2
Cc1ccc(NC(=O)C2CCN(S(=O)(=O)c3cc([N+](=O)[O-])ccc3Cl)CC2)nc1	2.8	i	0.69	/	-12	-14	1.3	-5	-3.5
Cc1ccc2c(c1)N(CC(=O)NCc1ccco1)C(=O)CO2	1.5	/	0.69	-26	/	/	/	0	-3.6
CC(C)Oc1ccc(F)cc1-c1cc(C(=O)NCc2ccc(C(F)(F)F)cc2)[nH]n1	/	i	/	/	-4	-9	-0.3	/	-3.3
CCCC(=O)Nc1ccc(S(=O)(=O)N2CCOCC2)cc1	2.0	i	0.7	-15	6	1	0.9	-5	0.9
CN(C)/N=C1\C(=O)N(CN2CCN(c3ccccc3)CC2)c2ccccc21	/	i	/	/	10	15	-2.1	8	1.3
CN(C(=O)c1ccc(NC(=O)Cc2cccc(NC(=O)C3CCCN(C(=O)c4ccccc4)C3)c2)cc1)C1CC1 (configuration not stated)	0.0	i	0.7	/	4	5	2.4	-3	1.0
Cc1cc(C)c(NC2=NCC(=O)N2C2CCCCC2)c(C)c1	0.9	/	0.71	-4	/	/	/	5	0.2
Cc1ccc(-n2ncc3c2CCCC3NC(=O)CCCN2CCCCC2=O)cc1C (configuration not stated)	0.9	i	0.72	1	-3	-2	-3.9	-8	-4.4
CCC1CCCCN1C(=O)CSc1nnc(-c2ccc(OC)cc2)o1 (configuration not stated)	2.5	i	0.73	-3	-16	-16	-5.4	-6	-1.2
O=C(Nc1nc(-c2ccccn2)cs1)c1cccc(-n2cnnn2)c1	0.7	i	0.66	-40	-14	-20	-14	14	-3.0
Cc1ncc(N=Nc2ccccc2)c(-c2ccccc2)n1	4.2	/	0.77	-1	/	/	/	-5	0.2
Cc1ccc(OCC(=O)Nc2cc(S(=O)(=O)N3CCOCC3)ccc2Cl)c([N+](=O)[O-])n1	3.8	i	0.68	-5	8	2	-5.0	-15	-0.3
O=C(CCNC(=O)c1ccc([N+](=O)[O-])cc1)NC1CCCc2ccccc21 (configuration not stated)	2.4	i	0.68	/	5	7	-2.0	-1	1.5
CC1CCCC(n2cnc3cc(C(=O)O)ccc32)C1C (configuration not stated)	1.5	i	0.71	/	2	-4	-8.4	2	1.5
CC(=O)Oc1ccc2ccccc2c1C(NC(=O)C(C)C)c1cccc([N+](=O)[O-])c1 (configuration not stated)	-0.1	i	0.67	-13	-16	-2	-8.7	0	3.6
COC(=O)CN1C(=S)N(c2ccc(OC)cc2)C(=O)C1CC(=O)Nc1ccc(F)cc1 (configuration not stated)	3.2	/	0.66	10	-8	5	1.9	-5	1.0

(listing goes on)
SMILES	UCH37 inh	FGF22 binding	E coli growth	ALR H2O2 inh	rRNA inh HTS	rRNA inh HTS OD600	rRNA inh HTS RFP	B2AR ag	HNF4A DNA FP
CCOC(=O)N1CCN(C(=O)COc2ccccc2OC)CC1	0.1	/	0.68	-13	/	/	/	8	-3.0
C=CCn1c(C)cc(C2=NNC(=NC(C)(C)C)SC2)c1C	/	i	/	99*	19	11	-1.6	6	-1.1
CCCCn1c(N)c(N(CC(C)C)C(=O)c2ccc(-c3ccc([N+](=O)[O-])cc3)o2)c(=O)[nH]c1=O	/	i	/	17	0	11	-5.3	13	4.4
COc1cc(NC(=O)C(C)Oc2ccccc2)cc(OC)c1 (configuration not stated)	-0.6	/	0.68	-2	/	/	/	3	-2.2
COCCCNc1nc2ccccc2nc1NS(=O)(=O)c1cccc(Cl)c1	-29	i	0.67	-8	-2	-12	-2.3	-12	-14
FC(F)C(F)(F)Oc1cccc(Nc2nccn3c(-c4cccc5cccnc45)cnc23)c1	/	i	/	/	0	3	19	/	7.4
Cc1nc2c(sc(=S)n2Cc2ccco2)c(=O)n1CC(=O)Nc1ccccc1	10	i	0.73	-1	-12	-12	-2.3	0	12
Cc1ccc2nc(NC3=NC(CC(=O)O)C(=O)N3)nc(C)c2c1 (configuration not stated)	-2.3	/	/	-3	20	6	4.2	/	/
Cc1cc(=O)[nH]c2ccc(S(=O)(=O)Nc3ccc(O)cc3)cc12	3.3	i	0.71	99*	-6	-10	-0.5	-5	1.1
COc1ccc(-c2cn3cc(C(F)(F)F)cc(Cl)c3n2)cc1	-19	i	0.71	44	-15	-16	-16	-15	2.9
Nc1ncc(Br)cc1S(=O)(=O)NCCC(=O)N1CCN(c2ccccc2)CC1	2.2	i	0.71	96*	-13	-16	-3.9	-8	3.7
Cc1ccc(OCc2nnc(SCc3ccc(C#N)cc3)n2-c2ccc(C)cc2)cc1	2.1	/	0.68	-5	/	/	/	-18	8.8
O=C(C1CCN(S(=O)(=O)N2CCCC2)CC1)N1CCCCC1	2.7	/	0.65	-4	/	/	/	-10	-0.4
C/C(CC1(O)C(=O)N(C)c2ccccc21)=N\O (configuration not stated)	/	/	/	-6	/	/	/	5	1.1
CCN(CCCNC(=O)c1ccc(N2CCCC2=O)cc1)c1cccc(C)c1	1.5	/	0.73	90*	/	/	/	-12	-1.5
CCCNC(=O)c1nn2cc(Br)cnc2c1Br	5.8	i	0.66	-15	-10	-7	-0.5	-19	-2.2
CCC1(c2ccccc2)NC(=O)N(CC(=O)Nc2cc(C(F)(F)F)ccc2N2CCCC2)C1=O (configuration not stated)	2.4	i	0.71	6	0	-1	-0.2	-4	-3.5
COc1ccc(N2C(=O)CC(c3ccccc3)C2=O)cc1 (configuration not stated)	1.5	i	0.67	-20	13	3	1.4	-5	0.1
COc1c(S(=O)(=O)NCCN2CCOCC2)ccc(Cl)c1Cl	2.2	/	0.62	-10	/	/	/	-5	-1.7

Source: PubChem (several laboratories)
